PABP FP inh: blocks human PABP binding to poly(A) RNA; AID 2014; fluorescence polarization; inhibition, % at 35 µM; 290,000 tested, 1% active;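 active = 50% or more with normal probe brightness, or confirmed in later tests; inconclusive = above 50% with abnormal brightness, or retests that disagree; inactive = below 50% or failed in later tests; about a fifth of its hits are not listed in these tables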;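 also: calls also rest on retests at 20 µM and on dose response follow-up; controls were probe without protein and protein plus probe with vehicle; some compounds called inactive have numbers as strong as hits; many hits fall short of the cut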
Target sequence (P11940 whole entry, looked up): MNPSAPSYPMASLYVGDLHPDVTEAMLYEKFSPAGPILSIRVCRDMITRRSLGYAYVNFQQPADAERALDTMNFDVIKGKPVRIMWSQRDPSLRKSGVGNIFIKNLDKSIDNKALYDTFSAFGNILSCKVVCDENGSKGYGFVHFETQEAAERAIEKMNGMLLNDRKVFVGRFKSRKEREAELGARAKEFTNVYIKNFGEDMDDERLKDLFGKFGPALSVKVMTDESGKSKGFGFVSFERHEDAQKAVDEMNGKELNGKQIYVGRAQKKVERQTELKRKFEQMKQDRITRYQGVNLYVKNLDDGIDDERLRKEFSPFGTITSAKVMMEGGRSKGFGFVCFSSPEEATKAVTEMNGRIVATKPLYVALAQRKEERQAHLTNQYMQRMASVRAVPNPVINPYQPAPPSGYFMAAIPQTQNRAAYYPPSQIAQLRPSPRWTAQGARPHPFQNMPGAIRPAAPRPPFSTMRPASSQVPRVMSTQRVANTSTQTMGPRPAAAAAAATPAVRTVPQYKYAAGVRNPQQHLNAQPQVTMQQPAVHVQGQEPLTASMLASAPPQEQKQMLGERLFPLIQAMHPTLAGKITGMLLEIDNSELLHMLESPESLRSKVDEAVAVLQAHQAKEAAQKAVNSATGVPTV
Rce1 inhib: inhibitors of yeast Ras-converting enzyme; yeast membranes, quenched prenylated peptide cleavage fluorescence; 290,000 tested, 0.27% active; calls only; Q03530;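 active = fall in fluorescence gain of 50% or more versus controls, with final raw signal at or below 3038400; inconclusive = same 50% fall but final raw signal above 3038400; inactive = fall in fluorescence gain under 50%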;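 also: plate controls were neutral control wells for no effect and wells lacking membranes for full effect; tested at 10 µM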
eIF4H inh: inhibitors of RNA binding by human eIF4H; Q15056; eIF4H fluorescence polarization binding assay; inhibition, % at 35 µM; 290,000 tested, 0.94% active;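 active = 50% or more with normal probe brightness, or confirmed in later tests; inconclusive = above 50% with abnormal brightness, or retests that disagree; inactive = below 50% or failed in later tests; about a fifth of its hits are not listed in these tables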;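 also: calls also rest on retests at 20 µM and on dose response follow-up; 0% = protein and probe with vehicle and 100% = probe without protein; strong numbers were not always called active; many hits fall short of the cut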
HIV Env fusion: HIV envelope-mediated fusion inhibition; HeLa-JRFL Env/CEM21 cell fusion, luciferase; inhibition, % at 12.3 µM; 360,000 tested, 1.1% active; AID 651610;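 active = mean replicate inhibition score of at least 50 and every replicate individually at or above 50; inconclusive = only one of the two criteria met; inactive = mean below 50 and not all replicates reaching 50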;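 also: 0% = plate neutral controls and 100% = maraviroc near 300 nM; one replicate is shown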
CSC inhib: blocks cancer stem cells; inhibition, % at 7.5 µM; 300,000 tested, 1.1% active; cancer stem cell-like cells viability, luminescence;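 active = mean at 75% or more and at least half the replicates too; inconclusive = mean and replicates disagree; tested in HMLE shEcad cells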;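 also: 0% = median of negative and 100% = median of positive control wells; the first replicate is given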
UUG fidelity: yeast start codon fidelity modulation; 350,000 tested, 0.13% active; S. cerevisiae UUG-firefly luciferase reporter, luminescence/redox ratio; activity score, % at 18.7 µM; AID 602363;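 active = replicate mean at a twofold rise or more, about +100% in these data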;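 also: firefly luciferase made from a UUG start codon reports start codon fidelity; reporter light over untreated wells divided by growth signal over untreated wells; some hits fall short of that in this replicate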
MT1-MMP act inh: MT1-MMP (human) activation inhibition; 360,000 tested, 0.061% active; P50281; GFP/RFP ratio change, % at 20 µM; HT1080 RFP-PRO-GFP cells, GFP/RFP ratio fluorescence, overnight; percent of plate control window, DMSO zero; AID 651647;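 active = GFP/RFP ratio change of at least 30% with cell ATP level not reduced by more than half and red fluorescence within 50% of control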; also: strong numbers were not always called active
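system = RFP-PRO-GFP reporter HT1080 cells | dosing = 20 µM single dose, 1% DMSO | timing = overnight cell settling, then overnight compound exposure, 37 °C, 5% CO2 | read-out basis = GFP/RFP fluorescence ratio | controls = DMSO and RFP-L50D-GFP cell wells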
eIF4H inh retest: further read-out of eIF4H inh, marked with its call; inhibition, %; compound at 20 µM; confirmation average;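 mean of two retest wells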
PABP FP inh retest: second read-out of PABP FP inh, no call of its own (marks repeat the call); inhibition, %; compound at 20 µM; confirmation repeats;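 mean of two retest wells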
MT1-MMP act inh RFP: second read-out of MT1-MMP act inh, no call of its own (marks repeat the call); RFP signal change, %; measured here: RFP expression control read;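 0 = vehicle wells; hits needed this value within 50% of zero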
* = called active by the depositor; i = inactive; ? = inconclusive; / = not tested or not shown; & = joins results of further samples; [ ] = another dose, or the depositor's remark.

SMILES	PABP FP inh	Rce1 inhib	eIF4H inh	HIV Env fusion	CSC inhib	UUG fidelity	MT1-MMP act inh	MT1-MMP act inh RFP	others
Cc1ccc(NC(=O)C2CCN(S(=O)(=O)c3ccc4c(c3)CCCC(=O)N4)CC2)cc1N(C)C	-9.8	i	-13.4	3.0	-11.8	-9.5	2.2	-1.9
O=c1cc(CSc2nnc(COc3ccccc3)o2)c2ccccc2[nH]1	2.2	/	-6.8	-84.1	-10.0	4.0	-0.7	-8.9
COc1ccc(C(C(=O)NC(C)(C)C)N(C(=O)CNC(=O)c2cccs2)c2ccc(C(C)C)cc2)cc1OC (stereo not given)	-2.5	/	-6.5	/	-5.2	-0.7	-0.4	-5.4
COc1ccc(NC(=O)Cn2nnc(C(=O)NCc3ccc4c(c3)OCO4)c2N)cc1	?	i	2.1	-3.1	2.5	/	2.0	3.7
CC(=O)N(C(C)=O)c1nc(-c2ccccc2)cn1/N=C/c1ccccc1	5.4	i	-16.8	-4.0	30.3	8.7	-1.9	-6.9
CCOc1cc2ccccc2cc1C(=O)Nc1ccccn1	/	i	/	-16.4	-15.6	-18.6	-6.5	-1.9
Cc1ccc(-c2ccc(CN3C(C)C(=O)N(Cc4cn(Cc5ccco5)nn4)CCS3(=O)=O)cc2)cc1 (stereo not given)	/	/	/	2.2	/	-4.3	-2.2	-8.6
CCOC(=O)C1=C(c2ccccc2)Nc2ncnn2C1c1cc(OC)ccc1OC (stereo not given)	2.9	i	0.8	/	3.7	/	5.6	1.0
CCn1c(SCc2ccc(C)cc2)nnc1-c1nn(-c2ccccc2)ccc1=O	-2.5	i	6.2	/	-8.0	-4.3	1.0	4.0
O=S(=O)(NC1CCCCC1Oc1ccccc1)c1ccccc1 (stereo not given)	-0.3	i	0.6	25.8	-4.7	/	-0.2	-1.4
COCC(=O)Nc1ccc2c(c1)[C@@H]1C[C@H](CC(=O)OC)O[C@H](CO)[C@@H]1O2	/	/	/	-0.5	/	23.3	6.8	8.4
CCn1c(NC(=O)c2ccco2)c(-c2ccccc2Cl)c(=O)c2ccccc21	0.1	i	8.3	-135.1	-7.0	-17.3	3.7	4.3
CC(C)(O)C#Cc1ccc(C(=O)N2CCN(c3ccccc3)CC2)cc1	5.8	i	-2.9	1.4	-8.3	/	-6.3	-3.5
COc1ccccc1NC(=O)CSc1nnc(-c2ccco2)n1Cc1ccco1	2.4	i	5.0	30.8	2.1	5.8	1.6	1.3
COc1ccc(CNC(=O)C2(C)Cc3c(-c4ccc5c(c4)OCO5)ccnc3O2)cc1OC (stereo not given)	/	/	/	-25.6	/	-2.7	0.5	0.3
COc1ccc(Cl)cc1-n1c(C)ccc1C	6.8	i	10.0	-2.9	-3.5	/	-6.5	3.4
O=C(NCC1CCCO1)C1CCCN1C(=O)Nc1ccccc1[N+](=O)[O-] (stereo not given)	-3.4	i	-9.9	-5.5	/	-12.9	-2.5	-0.7
COc1ccc(C(=O)CN(C(=O)c2ccc(Cl)cc2)N2C(=O)C3CCCCC3C2=O)cc1 (stereo not given)	-0.3	i	-1.6	6.0	-12.7	-21.3	2.4	-2.0
Cc1cc(=O)[nH]c(-c2ccc(C(F)(F)F)cc2)n1	-5.1	i	-0.3	3.3	-14.1	-11.3	0.4	-0.1
Cc1cccc(OCC(=O)NCCNC(=O)c2cnccn2)c1	-6.3	i	4.6	-3.0	/	-1.3	1.0	0.8
CC(NC(=O)CCOc1ccccc1)c1ccccc1 (stereo not given)	-2.8	i	-3.0	/	-13.7	-15.4	1.5	0.6
Cc1ccc(C(O)c2cccnc2)o1 (stereo not given)	-2.2	i	-1.6	/	/	/	-9.8	-0.5
C[C@@H]1CCCCO[C@H](CN(C)C(=O)Nc2ccc3c(c2)OCO3)[C@@H](C)CN([C@H](C)CO)C(=O)c2cc(NS(=O)(=O)c3ccc(F)cc3)ccc2O1	/	/	/	-20.5[16.7 µM]	/	-0.8&-2.0	1.1	-3.6
COc1ccc(/C=C/c2c([N+](=O)[O-])c(=O)n(C)c(=O)n2C)c(OC)c1	-6.1	i	1.1	4.3	-3.1	-12.0	-7.3	-7.5
COc1ccc(-c2c(=O)n(OC)c3ccccc3[n+]2[O-])cc1OC	20.6	i	18.8	-10.5	22.0	-10.9	-4.9	-1.0
CC(C)C(=O)Nc1ncc(Cc2ccccc2Cl)s1	-0.6	i	11.9	17.6	/	/	-1.9	-2.2
CCCC(C)NC(=O)CN(c1ccc2c(c1)OCCO2)S(=O)(=O)c1ccccc1 (stereo not given)	-5.6	i	-7.4	18.7	-5.4	5.9	-7.8	-4.2
O=C(c1ccccc1)C1CCc2occc2C1=O (stereo not given)	1.7	i	-8.6	-110.4	-9.3	-3.3	1.4	7.6
Cc1cc(C)c(C)c(S(=O)(=O)N(C)CCc2ccccn2)c1C	/	/	/	2.2	-7.7	-13.3	0.5	-13.9
S=C(c1ccc(N2CCCC2)cc1)N1CCCCC1	0.4	/	-4.4	31.6	-18.5	-27.8	1.0	-1.6

Reprinted at random: 2 records from the list, in no set order.
SMILES	PABP FP inh	Rce1 inhib	eIF4H inh	HIV Env fusion	CSC inhib	UUG fidelity	MT1-MMP act inh	MT1-MMP act inh RFP	others
COCC(=O)Nc1ccc2c(c1)[C@@H]1C[C@H](CC(=O)OC)O[C@H](CO)[C@@H]1O2	/	/	/	-0.5	/	23.3	6.8	8.4
Cc1ccc(-c2ccc(CN3C(C)C(=O)N(Cc4cn(Cc5ccco5)nn4)CCS3(=O)=O)cc2)cc1 (stereo not given)	/	/	/	2.2	/	-4.3	-2.2	-8.6

Carrying on.
SMILES	PABP FP inh	Rce1 inhib	eIF4H inh	HIV Env fusion	CSC inhib	UUG fidelity	MT1-MMP act inh	MT1-MMP act inh RFP	others
Cc1ccc(-c2cc(C(=O)NCCCn3ccnc3)c3ccccc3n2)s1	9.9	i	-3.8	15.9	7.8	-6.3	-17.4	-6.5
COC(=O)Nc1nc2ccc(SC(C)C)cc2[nH]1	/	/	/	-23.0	71.0	-24.5	11.9	-1.8
O=C1CC(C(=O)Nc2ccc(F)cc2)n2cnnc2N1 (stereo not given)	3.1	i	-12.3	6.9	5.4	/	-5.5	-4.9
CCOC(=O)c1cn(CC(=O)Nc2ccc(C(C)C)cc2)nn1	-4.5	i	-3.8	-39.1	13.6	-18.1	-0.9	1.3
N#Cc1cccc(S(=O)(=O)NNC(=O)C23CC4CC(CC(C4)C2)C3)c1	/	/	/	14.0	-12.8	-7.6	4.6	2.2
CCCC1=NN(C(=O)Cc2ccc(OC)c(OC)c2)C(O)(C(F)(F)F)C1 (stereo not given)	1.2	i	-5.5	5.6	-13.9	1.2	-0.4	-1.1
N/C(=N\OC(=O)c1ccccc1Cl)c1ccccn1	-1.3	i	0.4	/	/	-87.6	-11.1	-10.3
COc1ccc(C2=CC(c3ccc(C)cc3)n3nnnc3N2)cc1 (stereo not given)	6.1	i	9.5	/	3.2	-15.8	-73.6	0.1
NC(=O)/C(=C\c1ccncc1)c1cccc2ccccc12	-3.6	i	-13.0	15.6	-1.9	-9.5	-3.8	-4.8
COc1cc(CCC(=O)OCC(=O)NCCc2ccc(S(N)(=O)=O)cc2)cc(OC)c1OC	/	/	/	-4.6	-18.1	7.0	-3.4	-0.8
O=C(CC1C(=O)NCCN1Cc1c(F)cccc1Cl)NCCC1=CCCCC1 (stereo not given)	-0.1	i	-11.3	26.7	-20.0	1.2	3.0	2.7
CC(=O)Nc1ccc(-n2c(C)ccc2C)cc1	-13.5	i	-4.0	-17.4	4.3	/	-2.3	3.2
CCc1ccc(OCC(=O)NNC(=O)c2cnccn2)c(Br)c1	-7.0	i	-8.1	-5.2	-6.9	-16.6	4.1	3.2
CCN(CC)c1ccc(/C=N/Nc2nc(C)cc(=O)[nH]2)cc1	-2.5	i	4.5	-27.1	-8.5	-27.6	-2.3	-5.8
COc1ccc(C(=O)Nc2cc(OC)c(Cl)cc2Cl)cc1	7.6	i	2.5	4.3	-8.4	/	-0.9	4.9
C[C@@H]1C=C[C@](Cc2ccccc2)(C(=O)NCCc2c[nH]c3ccccc23)N1C(=O)c1ccccc1	1.1	i	-4.5	-14.5	-5.6	-11.3	3.0	-7.9
CNC(=S)N/N=C/c1ccc(-c2ccc(C(=O)O)cc2)o1	20.6*	i	53.5*	-5.6	60.8	-36.5	-2.6	-1.3	eIF4H inh retest=94.1*;PABP FP inh retest=99.6*
C[C@@H]1CN([C@@H](C)CO)C(=O)c2cc(Br)cnc2O[C@H]1CN(C)C(=O)c1ccncc1	/	/	/	-30.9[16.7 µM]	/	-8.3&1.1	-0.3	5.9
CC12CCC(C(=O)O)(c3nc4cc([N+](=O)[O-])ccc4nc31)C2(C)C (stereo not given)	0.0	i	8.3	6.7	-7.0	-2.3	9.9	-1.2
CC1CCCCN1S(=O)(=O)c1ccc2c(c1)C(C)(C)C(=O)N2C (stereo not given)	4.0	i	-11.8	1.1	/	-10.6	2.7	1.0
O=C(CSc1ccc(Cl)cc1)NC1CCCc2ccccc21 (stereo not given)	-11.7	i	-4.0	-7.6	-0.9	-13.9	-7.2	-6.0
O=C(Nc1ccc(C(=O)N2CCCCC2)cc1)c1ccc(Br)cc1	-9.2	i	-20.8	/	/	-5.7	-1.5	-9.0
Cc1cccc(NC(=O)C2C(C(=O)O)C3C=CC2C32CC2)c1C (stereo not given)	10.5	i	-6.3	/	-11.9	1.4	-3.2	-3.9
COc1ccc(CNC(=O)c2sc(=S)n(-c3ccccc3)c2N)cc1	15.8	i	3.7	-9.0	-3.0	-13.3	2.7	-2.7
CC(C)CC(=O)N1CCC(N(CCc2ccccc2)Cc2ccccc2)CC1	17.3	i	1.1	17.0	1.3	-16.9	-5.5	-5.3
CCCCc1ccc(NS(=O)(=O)N(C)C)cc1	-5.1	i	2.7	3.7	-2.6	-8.9	-2.4	0.1
COc1ccccc1N(O)C1CC(=O)N(c2ccc(Br)cc2)C1=O (stereo not given)	-1.5	i	-8.3	-0.7	5.4	-7.7	0.9	5.6
CC1(C)CC(=O)C2=C(C1)N(c1ccc(F)cc1)C(=O)C2(NC(=O)c1ccccc1)C(F)(F)F (stereo not given)	-2.4	i	-0.7	/	-12.8	/	/	/
O=C1[C@@H]2Cc3c([nH]c4ccccc34)C(c3ccccc3)N2C(=O)CN1C1CC1 (stereo not given in full)	5.8	i	15.9	19.4	14.5	-13.2	-0.1	-1.7
O=C1CN(C(=O)COC(=O)c2ccccc2NC(=O)c2ccco2)c2ccccc2N1	-6.4	i	-5.0	-46.6	3.8	-20.4	7.9	3.1
Cc1cc(C)c2c(c1)/C(=N/NC(=S)Nc1ccc(F)cc1)CCC2	10.5	i	-6.6	-40.6	30.3	-39.4	-0.6	0.8
COc1ccc(C2(C(=O)Nc3ccc(C)c(C)c3)CCOCC2)cc1	-1.7	i	-5.2	9.7	-9.5	-7.3	1.7	-8.7
O=c1cc(CO)oc(CN2CCN(c3cccc(C(F)(F)F)c3)CC2)c1O	-1.8	i	11.9	-42.9	-10.4	-6.3	5.8	8.3
COc1ccc(Cl)cc1C(=O)NCC#N	-0.9	i	-12.2	-105.4	14.2	-13.9	1.4	8.3
Cc1cc(OCC(=O)OCC(=O)N(C)c2c(N)n(Cc3ccccc3)c(=O)[nH]c2=O)ccc1Cl	/	i	/	-2.9	-6.5	/	-1.7	0.2
CC(=O)N1c2ccc(S(=O)(=O)N3CCOCC3)cc2CC1C (stereo not given)	-8.0	i	-10.8	-12.7	/	-21.7	4.0	2.3

Screens (PubChem)

The list is partial; the hit share may differ from the screen's.
